Mtb growth – Confirmatory growth inhibition assay against Mycobacterium tuberculosis H37Rv, potency (AID 1949) | most inactive calls were filed without a number and no value below 0 was filed | inhibition, % at 10 µg/mL, or IC50 in µg/mL where a hit was titrated | 100,000 tested, 1.6% active;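 active means confirmed in a dose series; inconclusive means about 50% or more but not retested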;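 further: bacteria grown 7 days with compound before Alamar blue readout; 0% = untreated bacteria and 100% = reference antibiotic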
Starred values were filed as active, the others as inactive; i = inactive; ? = inconclusive. A portion of the library; count on the stated rates, not on these rows.

SMILES | Mtb growth
CC1CN(S(=O)(=O)c2ccc(Cl)cc2)C(C)CN1S(=O)(=O)c1ccc(Cl)cc1 (stereo not given) | i
CC(C)CCOc1ccc(/C=C(\C#N)c2nc3ccccc3c(=O)[nH]2)cc1 | i
CSc1nc2sc3c(c2c2nnc(C)n12)CCC(C)C3 (stereo not given) | i
COC(=O)COc1ccc2c(=O)c(Oc3ccc(-c4ccccc4)cc3)coc2c1 | i
CCc1ccc(NC(=O)CN(c2cccc([N+](=O)[O-])c2)S(C)(=O)=O)cc1 | i
Cc1cc(C)c(NC(=O)Nc2ccccc2C)c(Cl)c1 | i
CC(Oc1ccccc1)c1nnc(SCC(=O)Nc2ccc([N+](=O)[O-])cc2)n1C (stereo not given) | i
CCN(CC)C(=O)c1ccccc1NC(=O)c1ccccc1 | i
CCn1c(CNC(=O)c2ccccc2Cl)nnc1SCC(=O)Nc1ccc(I)cc1C(C)C | i
Cc1cccc(NC(=S)NC(=O)c2cccc(OCC(C)C)c2)n1 | i
N=C(N=C(N)N)N(c1ccccc1)c1ccccc1 | 3%
CCc1c(C)sc(NC(=O)c2cnn3cccnc23)c1C#N | i
COc1cccc(CN2CCC(C(=O)N3CCN(c4ccccc4F)CC3)CC2)c1 | i
COC(=O)c1c(NC(=O)c2cc(-c3cccnc3)nc3ccc(Cl)cc23)sc(C)c1C | i
O=C(NCc1cccs1)Nc1ccc(Cl)cc1 | 4%

Random excerpt: 5 records from the list
SMILES | Mtb growth
Cc1cccc(NC(=S)NC(=O)c2cccc(OCC(C)C)c2)n1 | i
COC(=O)COc1ccc2c(=O)c(Oc3ccc(-c4ccccc4)cc3)coc2c1 | i
O=C(NCc1cccs1)Nc1ccc(Cl)cc1 | 4%
CC1CN(S(=O)(=O)c2ccc(Cl)cc2)C(C)CN1S(=O)(=O)c1ccc(Cl)cc1 (stereo not given) | i
N=C(N=C(N)N)N(c1ccccc1)c1ccccc1 | 3%

An excerpt of these results, in CSV form:
canonical_smiles,Mtb growth
N=C(N=C(N)N)N(c1ccccc1)c1ccccc1,3%
CC1CN(S(=O)(=O)c2ccc(Cl)cc2)C(C)CN1S(=O)(=O)c1ccc(Cl)cc1 (stereo not given),i
CCn1c(CNC(=O)c2ccccc2Cl)nnc1SCC(=O)Nc1ccc(I)cc1C(C)C,i
COC(=O)c1c(NC(=O)c2cc(-c3cccnc3)nc3ccc(Cl)cc23)sc(C)c1C,i
CC(C)CCOc1ccc(/C=C(\C#N)c2nc3ccccc3c(=O)[nH]2)cc1,i
CCN(CC)C(=O)c1ccccc1NC(=O)c1ccccc1,i
O=C(NCc1cccs1)Nc1ccc(Cl)cc1,4%
COC(=O)COc1ccc2c(=O)c(Oc3ccc(-c4ccccc4)cc3)coc2c1,i
Cc1cc(C)c(NC(=O)Nc2ccccc2C)c(Cl)c1,i
COc1cccc(CN2CCC(C(=O)N3CCN(c4ccccc4F)CC3)CC2)c1,i

Later entries
SMILES | Mtb growth
CCN1C(=O)C2ON(c3ccccc3)C(c3cccs3)C2C1=O (stereo not given) | i
Cc1ccc(OCC(=O)N2CCN(C(=O)COc3ccc4ccccc4c3)CC2)cc1 | 2%
CC(C)CCOc1ccccc1C(N)=O | i
O=C(Cn1nc(-c2ccc(Cl)cc2)c2ccccc2c1=O)NCC1CCCO1 (stereo not given) | i
S=C(NCc1ccccc1Br)NCC1CCCO1 (stereo not given) | 3%
CC(=O)Nc1ccc2nc(NC(=O)c3ccccc3I)sc2c1 | i
O=C(NCCN1CCCC1)c1cccs1 | 2%
Cc1cccc(NC(=O)c2sc(-c3ccccc3)nc2C)c1 | i
Cc1cc(SCC#N)nc2ccccc12 | i
Cc1ccc(N2C(=O)c3ccc(C(=O)OCC(=O)c4ccc(Cl)c([N+](=O)[O-])c4)cc3C2=O)cc1 | i
COC(=O)c1ccc(NC(=S)Nc2cc(C)[nH]n2)cc1 | i
Cc1cccc(NC(=O)Nc2ccccc2C2CC2)c1 | i
COC(=O)c1cccc(NC(=S)NCc2ccco2)c1 | i
COc1ccc(C2CC(=O)n3nc(-c4ccc(C)cc4)nc3S2)cc1 (stereo not given) | i
COCCCN1C(=O)C(O)=C(C(=O)c2ccco2)C1c1ccc(OCc2ccccc2)c(OC)c1 (stereo not given) | i
CC(=O)Oc1ccc2c(c1Br)CCCC2 | i
CCc1cc2c(SCC(=O)c3ccccc3)ncnc2s1 | i
CC(C)(C)OC(=O)COc1ccc2cc(-c3nc4ccccc4s3)c(=O)oc2c1 | ?
O=C(COc1ccc2ccccc2c1)Nc1cccc2cccnc12 | i
CCOC(=O)/C=C/C(=O)Nc1nc(-c2ccccc2)cs1 | 0.53µg/mL*
CC(=O)NC1C(=O)N(C)c2ccc(Cl)cc21 (stereo not given) | i
Nc1ccc(NC(=O)c2ccco2)c(Cl)c1 | i
O=C(COc1cccc2cccnc12)N1CCc2ccccc21 | i
Cc1ccc(N(Cc2ccc(C(=O)N3CCc4ccccc4C3)cc2)S(C)(=O)=O)cc1C | 2%
CCOc1ccc(-n2c(-c3ccncc3)n[nH]c2=S)cc1 | i
CC(=O)Oc1ccccc1C(=O)OCc1ccc2ccccc2c1 | 12µg/mL*
CS(=O)(=O)N(CC(N)=O)Cc1ccc(Cl)cc1 | i
CCOCC(=O)Nc1ccc([N+](=O)[O-])cc1C | i
COc1cc2c(cc1OC)C(c1cc(C)ccc1C)CC(=O)N2 (stereo not given) | i
O=C(c1ccccc1)c1cccc(S(=O)(=O)c2ccccc2)c1 | i
CCCc1nnc(SCC(=O)N2CCCc3ccccc32)n1N | i
C=CCn1c(Cc2ccc(OC)cc2)nnc1SCC(=O)Nc1ccc(I)cc1C(C)C | i
CN1C(=O)C(O)(CC(=O)c2ccccc2O)c2cc(Br)ccc21 (stereo not given) | i
COc1ccccc1NC(=S)N1CCCCC1 | i
CCCNC(=O)c1ccccc1NC(=O)C(OC)c1ccccc1 (stereo not given) | 4%
Cc1onc(-c2c(Cl)cccc2Cl)c1C(=O)NCc1ccc2c(c1)OCO2 | i
COc1ccc(S(=O)(=O)N(CC(=O)Nc2ccc(S(=O)(=O)Nc3nccs3)cc2)c2cccc(Cl)c2)cc1 | i
Cc1ccc(C(=O)NC2CCCCC2)cc1I | 0%
C=CCn1c(CNC(=O)c2ccco2)nnc1SCC(=O)Nc1sc2c(c1C#N)CCCC2 | i
Cc1cccc(NC2(C(F)(F)F)N=C(c3ccccc3)NC2=O)n1 (stereo not given) | i
Cc1cc([N+](=O)[O-])ccc1NC(=O)c1cnccn1 | i
Cc1nc2cc(NC(=O)NC3=NCCS3)ccc2n1C | i
Cc1ccc(NC(=O)c2ccc(Cl)cc2Cl)cc1[N+](=O)[O-] | i
O=C(Nc1ccc(Oc2ccccc2)cc1)c1cccnc1 | i
CCOc1ccc(N(CC(=O)N2CCCCC2)S(=O)(=O)c2ccc(OC)c(OC)c2)cc1 | i

Reformatted: results already given
| molecule | Mtb growth |
| --- | --- |
| COc1ccc(S(=O)(=O)N(CC(=O)Nc2ccc(S(=O)(=O)Nc3nccs3)cc2)c2cccc(Cl)c2)cc1 | i |
| COc1ccccc1NC(=S)N1CCCCC1 | i |
| C=CCn1c(CNC(=O)c2ccco2)nnc1SCC(=O)Nc1sc2c(c1C#N)CCCC2 | i |
| Cc1onc(-c2c(Cl)cccc2Cl)c1C(=O)NCc1ccc2c(c1)OCO2 | i |
| Cc1ccc(NC(=O)c2ccc(Cl)cc2Cl)cc1[N+](=O)[O-] | i |
| Cc1cc([N+](=O)[O-])ccc1NC(=O)c1cnccn1 | i |

(list continues)
SMILES | Mtb growth
O=C(NC(=S)Nc1ccccc1N1CCOCC1)c1ccc(-c2ccccc2)cc1 | i
O=C(Nc1ccc(I)cc1)N1CCCCC1 | 2%
CCSc1ccccc1C(=O)NC(C)COC (stereo not given) | i
O=C(O)C1C2C=CC(O2)C1C(=O)NCc1ccccc1Br (stereo not given) | i
Cc1ccc(-c2cc(C(F)F)n3ncc(C(=O)NCc4cccs4)c3n2)cc1 | i
COc1cc(Nc2ncnc3c2cnn3-c2ccc(Cl)cc2)cc(OC)c1OC | 0%
COC(=O)C1=C(C)NC(=S)NC1c1ccc(C(=O)OC)cc1 (stereo not given) | i
COc1ccc(OC)c(N(CC(=O)Nc2ccc(F)cc2F)S(=O)(=O)c2ccccc2)c1 | i
COc1ccc(N2CCN(c3nc(NCCc4ccc(OC)c(OC)c4)nc(N4CCOCC4)n3)CC2)cc1 | 41%
O=C(COc1cc(Cl)c(Cl)cc1Cl)NCc1ccncc1 | i
COc1cccc(C(=O)COc2cc(C)ccc2C(C)C)c1 | 2%
CN=C(Nc1ccc(Cl)c(Cl)c1)SC1CC(=O)N(c2cccc(OC)c2)C1=O (stereo not given) | 12%
Cc1[nH]c2ccc(Br)cc2c(=O)c1CN(C)C1CCN(C)CC1 | i
COc1ccc(OCCCC(=O)Oc2ccc3c4c(c(=O)oc3c2)CCC4)cc1 | i
O=C(CSc1ccccc1)NCc1ccccc1Cl | i
Cc1ccccc1C(=O)Nc1cccc(NC(=O)c2cccnc2)c1 | i
COc1cc(NC(=O)c2ncn[nH]2)cc(OC)c1OC | i
Cc1ccc(NC(=S)N2CCCC(C)C2)c(C)c1 (stereo not given) | i
COc1cc(NC(=O)COc2ccc(Br)cc2)ccc1NC(=O)C(C)C | i
Cc1ccc(SC(C)C(=O)Nc2ccccc2-c2ccccc2)cc1 (stereo not given) | 1%
CCc1sc(NC(=O)c2cccc(F)c2)nc1-c1ccccc1 | 12%
O=C(c1ccccc1)N1CCN(C(=O)c2ccc(Cl)cc2Cl)CC1 | i
O=C1N(c2cccc(Cl)c2)C2CS(=O)(=O)CC2N1c1cccc(C(F)(F)F)c1 (stereo not given) | i
O=C(Nc1cccc2c(NC(=O)C3CCCCC3)cccc12)C1CCCCC1 | i
CCN(CC)c1ccc(NC(=O)COc2ccc(C)cc2)c(C)c1 | 1%
CCCC1=C(C(=O)OCC)C(c2cc(OC)ccc2OC)NC(=S)N1 (stereo not given) | 10%
O=S(=O)(c1ccc(F)cc1)N1CCN(C(=S)NCCc2ccccc2)CC1 | i
COC(=O)c1c(NC(=S)N2CCC3(CC2)OCCO3)sc2c1CCCCCC2 | i
COC(=O)Cc1c(C)nc(SCc2ccccc2)[nH]c1=O | 9%
CC(=O)N1N=C(c2ccccc2)CC1(O)C(F)(F)F (stereo not given) | 4%
COc1cc(C)c(S(=O)(=O)NCc2cccs2)cc1C | 1%
COc1cc(CNC(=O)c2ccc(Cn3nc(C)c(Cl)c3C)o2)cc(OC)c1 | i
Cc1ccc(NC(=O)Cn2cnc3sc(-c4ccccc4)cc3c2=O)c(C)c1 | i
O=C(O)Cc1nnc(-c2ccco2)n1Cc1ccccc1 | i
COC(=O)c1ccc(NC(=O)c2ccc(C)c(Br)c2)cc1 | i
NC(=O)c1ccccc1NS(=O)(=O)c1ccc(Cl)s1 | i
O=c1oc2ccccc2n1CCCOc1ccccc1 | i
COc1ccc(S(=O)(=O)N(CC(=O)Nc2ccc(C)cc2)c2ccccc2)cc1 | i
N#CCCN(Cc1ccccc1)C(=O)c1ccccc1 | i
C=CCn1c(SCC(=O)c2ccc3c(c2)OCCO3)nc2sc3c(c2c1=O)CCC3 | i
Cc1cccnc1NC(=O)C12CC3CC(CC(C3)C1)C2 | i
C=CCc1cccc(C)c1OCCCNC(C)CC (stereo not given) | i
COc1ccc(CNCCCN2CCOCC2)cc1OC | i
Cn1c(=O)c2c(-c3ccccc3)n3c4ccccc4nc(-c4ccncc4)c3c2n(C)c1=O | i
COc1cc(C(=S)N2CCN(c3ccc(F)cc3)CC2)cc(OC)c1O | i
COc1cc(C)c(Br)cc1S(=O)(=O)NCC1CCCO1 (stereo not given) | 1%
O=C(Cc1ccccc1)N1CCN(CC2CC=CCC2)CC1 (stereo not given) | i
O=C(Nc1scc2c1c(=O)oc1ccccc12)C1CCCCC1 | 6%
O=C(Nc1cccc(Cl)c1)c1ccc([N+](=O)[O-])cc1 | ?
CC(C)COc1cc(=O)[nH]c(SCC(C)C)n1 | i
COc1ccc(-c2nc3ccccc3c(C(=O)Nc3ccccc3OC)c2C)cc1 | i
Cc1ccc(OCCNS(=O)(=O)c2ccc(C)c([N+](=O)[O-])c2)cc1 | i
O=C(c1ccccc1)N1CCN(c2nc(-c3ccccc3)c3cc([N+](=O)[O-])ccc3n2)CC1 | ?
O=C(NC(=S)Nc1ccc2c(c1)OCCO2)c1ccccc1F | 5%
O=C(Nc1cc(C(F)(F)F)cc(C(F)(F)F)c1)c1ccc(F)cc1 | 0%
Cc1ccc(C)c(N(CC(=O)NC2CCCCC2)S(C)(=O)=O)c1 | i
O=C(CC1NC2CCCCC2NC1=O)Nc1ccc2c(c1)OCCO2 (stereo not given) | i
CCc1ccc(N(CC(=O)NC(C)c2ccccc2)S(=O)(=O)c2ccccc2)cc1 (stereo not given) | 0%
CCc1c(C)sc(N2C(=O)C3C4CCC(O4)C3C2=O)c1C(N)=O (stereo not given) | i
CCOc1cc(C(=O)Nc2sc3c(c2C(N)=O)CCCCC3)cc(OCC)c1OCC | i
(cont.)
SMILES | Mtb growth
COc1cc(NC(=O)CSc2ccc(C(C)(C)C)cc2)cc(OC)c1OC | i
COC(=O)c1c(-c2ccccc2)csc1NC(=O)Cc1ccc([N+](=O)[O-])cc1 | i
CSc1nsc(SCC(=O)NCc2ccco2)n1 | 32%
O=C1CCCC(=O)C1C1c2ccccc2Oc2ccc(F)cc21 (stereo not given) | 1%
Cc1nc2cc(NC(=O)NCc3ccccc3)ccc2o1 | i
Cn1c(=O)c2c(ncn2CC(=O)N2CCC(Cc3ccccc3)CC2)n(C)c1=O | i
Cc1ccc(C(=O)N2CCN(c3ccc(NC(=O)c4ccc([N+](=O)[O-])cc4)cc3)CC2)cc1 | i
Cc1nc(C)c(C(=O)C2=C(O)C(=O)N(CCCN3CCOCC3)C2c2ccccc2)s1 (stereo not given) | i
CCN1C(=O)CC(N2CCOCC2)C1=O (stereo not given) | i
CC12CNCC(c3ccccc3)(CNC1)C2=O | i
COc1ccc2nc(SCC(=O)c3ccc(-c4ccccc4)cc3)[nH]c2c1 | 11%
CCOc1ccc(NC(=O)CSc2nnc(-c3ccncc3)n2-c2ccc(C)c(C)c2)cc1 | i
Cc1cc(C)c(NC(=O)COc2cccc3cccnc23)c(C)c1 | 3%
CS(=O)(=O)c1nc2c(cc1C#N)CCCC2 | i
COC(=O)C1Cc2c(ccc3ccccc23)O1 (stereo not given) | i

Screening data as filed in PubChem.
